SARS PLP yeast – qHTS of Yeast-based Assay for SARS-CoV PLP; S. cerevisiae expressing SARS-CoV PLpro, growth rescue; control for the full effect not named in the record; hit rate 0.19% among 330,000; Potency, µM (doses to about 32.9 µM), for inactives: at the highest dose activity, positive = growth rescue; AID 485353, 2010; active means well fitted rising curve with a large enough effect; inconclusive means small, poorly fitted or top-dose-only effect; inactive means no such curve, though single readings can be large or run the other way; note: 0% is about no effect; nearly all actives have a fitted effect of over 55% in size; growth read by luminescence after 48 h
Cruzain noTriton – qHTS Assay for Promiscuous and Specific Inhibitors of Cruzain (without detergent); purified cruzain, Z-FR-AMC fluorescence, no detergent; Potency, µM, for inactives: max response, negative = inhibition, actives largely listed as inhibitors; hit rate 2.3% among 200,000;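 note: plate controls were enzyme without inhibitor for no effect and buffer without enzyme for full effect; nearly all actives have a fitted effect of over 40% in size; top concentration of the series not given in the record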
Target sequence (P25779 123-467 limits assumed): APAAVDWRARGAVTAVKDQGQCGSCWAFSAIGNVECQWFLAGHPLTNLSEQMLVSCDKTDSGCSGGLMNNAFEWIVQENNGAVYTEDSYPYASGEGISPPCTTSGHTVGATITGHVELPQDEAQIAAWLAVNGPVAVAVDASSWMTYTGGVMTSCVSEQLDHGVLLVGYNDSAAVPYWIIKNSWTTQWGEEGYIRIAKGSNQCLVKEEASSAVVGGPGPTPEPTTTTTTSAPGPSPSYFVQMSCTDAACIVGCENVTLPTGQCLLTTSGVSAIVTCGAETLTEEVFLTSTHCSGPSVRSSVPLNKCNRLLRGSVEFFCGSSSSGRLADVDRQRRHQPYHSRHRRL
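Detergent-free condition (0.00005% Triton X-100) in acetate buffer pH 5.5 with DTT. 1.5 nM enzyme and compound were pre-mixed 15 min, then 2 uM Z-FR-AMC substrate added; reaction progress from fluorescence change between first and third reads (60 s).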
NS1 inh – qHTS Assay for Inhibitors of Influenza NS1 Protein Function; S. cerevisiae slowed by influenza A NS1, growth recovery by OD600; Potency, µM (series often up to 46.1 µM), inactives show at the highest dose activity, positive = more growth; hit rate 0.4% among 270,000; active means well fitted rising curve with a large enough effect; inconclusive means small, poorly fitted or top-dose-only effect; inactive means no such curve, though single readings can be large or run the other way; note: nearly all actives have a fitted effect of over 50% in size
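Recovery from NS1-induced slow growth read by OD600 in budding yeast switched to galactose assay medium (pH 6.0, -URA) at 1:100 dilution. Compound 23 nl per well; the matching strain lacking NS1 serves as control.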
Lassa entry inh – qHTS for Inhibitors of binding or entry into cells for Lassa Virus. Lassa virus pseudotype entry inhibition, cell reporter; control for the full effect not named in the record. Potency, µM (top dose mostly 37.9 µM), inactives show at the highest dose activity change, negative = inhibition, usual class: inhibitors. hit rate 1.2% among 300,000; active means well fitted inhibition curve with a large enough effect; inconclusive means small, poorly fitted or top-dose-only effect, or effect the other way; inactive means flat fitted curve, though single readings scatter; tested in HEK293 cells; note: % is set by controls: 0 for no effect and ±100 for the full control effect; nearly all actives have a fitted effect of over 50% in size; luciferase read-out
2A StopGo – High Throughput Screening for Foot and Mouth Disease Virus Antivirals; hit rate 1.2% among 410,000; human cells with a luciferase reporter of 2A StopGo recoding; control for the full effect not named in the record; AID 1159524, 2015; Potency, µM (doses to about 57.9 µM), for the others: top-dose signal change, negative = less light; active = well fitted falling curve with a large enough effect; inconclusive = small, poorly fitted or top-dose-only effect; inactive = no such curve, though single readings can be large or run the other way; tested in HEK293T cells; note: % is set by controls: 0 for no effect and ±100 for the full control effect; nearly all actives have a fitted effect of over 45% in size; luciferase light after 4 h
MARV entry inh – qHTS for inhibitors of binding or entry into cells for Marburg Virus; Marburg virus pseudotyped entry inhibition, cell reporter; control for the full effect not named in the record; about a third of the inactives were read at about 46 µM; Potency, µM (titrated, usually from 37.8 µM), for inactives: at the top dose activity change, negative = inhibition, usual class: inhibitors; hit rate 1.8% among 300,000; AID 540276, 2011; active = well fitted inhibition curve with a large enough effect; inconclusive = small, poorly fitted or top-dose-only effect, or effect the other way; inactive = flat fitted curve, though single readings scatter; tested in HEK293 cells; about a fifth of its hits are not listed in these tables; note: % is set by controls: 0 for no effect and ±100 for the full control effect; luciferase read-out
Cruzain Triton – qHTS Assay for Promiscuous and Specific Inhibitors of Cruzain (with detergent); hit rate 0.43% among 200,000; purified cruzain, Z-FR-AMC fluorescence, 0.01% Triton; Cruzipain (Trypanosoma cruzi), P25779; Potency, µM, for the others: max response, negative = inhibition, usual class: inhibitors;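 note: plate controls were neutral wells for no effect and buffer without enzyme for full effect; nearly all actives have a fitted effect of over 40% in size; top concentration of the series not given in the record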
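Read-out: AMC fluorescence (360 nm excitation, 450 nm emission), four reads over 2 min, first-to-third difference used. Conditions: cruzain 1.5 nM, Z-FR-AMC 2 uM, pH 5.5 acetate, 5 mM DTT, 0.01% Triton X-100.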
RE007 growth inh – qHTS Assay for Inhibitors of the HIV-1 protein Vpr; S. pombe RE007 Vpr strain, BacTiter-Glo ATP luminescence, 24 h; control for the full effect not named in the record; Potency, µM (top dose mostly 92.2 µM), for inactives: at the highest dose activity change, negative = less growth; hit rate 0.21% among 360,000; active = well fitted falling curve with a large enough effect; inconclusive = small, poorly fitted or top-dose-only effect; inactive = no such curve, though single readings can be large or run the other way;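 note: % is set by controls: 0 for no effect and ±100 for the full control effect; nearly all actives have a fitted effect of over 50% in size; the assay follows cell death caused by Vpr and the record does not say whether a fall means rescue or toxicity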
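Fission yeast RE007 carrying one integrated HIV-1 vpr copy, seeded at OD 0.01 in PMG+AL medium with 23 nL pinned compound. Grown 24 h at 30 degrees; viability read by BacTiter-Glo luminescence after 5 min.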
* = called active by the depositor; ? = inconclusive; · = not tested or not shown; & = joins results of further samples; [ ] = dose if it differs, or a comment. Unless noted, calls come from the whole dose curve; as a rule, active = well fitted curve in the direction sought with a large enough effect; inconclusive = small, poorly fitted or top-dose-only effect, or another doubt; inactive = no such curve, though single readings can be large; an effect the other way counts as inactive or inconclusive. Potency is the fitted concentration of half-maximal effect.

SMILES	SARS PLP yeast	Cruzain noTriton	NS1 inh	Lassa entry inh	2A StopGo	MARV entry inh	Cruzain Triton	RE007 growth inh
Oc1ccccc1C=NNC(=S)NN=Cc1ccccc1O	·	·	·	?	24%	?	·	-24%
CCOc1ccc(CCNC(=O)CCCn2c(=O)c3cccn3c3ccccc32)cc1	·	?	·	-11%[46.1 µM]	?	·	-5.7%	·
COc1cccc(C(=O)Nc2nnc(S(=O)(=O)N(C)Cc3ccc(F)cc3)s2)c1	-1%	·	-17%	·	-20%	·	·	-9%
COc1ccc(/C=N/N2CCOCC2)cc1Cn1cc([N+](=O)[O-])cn1	-1%	·	-3%	?	34%[activator]	20%	·	0%
CC(=O)Nc1ccc(S(=O)(=O)N(C)CC(=O)OCC(=O)N2CCCCC2)cc1	·	·	·	-9%	-19%	8%[46.1 µM]	·	0%
O=C(CSc1nnc(-c2cccnc2)n1Cc1ccccc1)NCc1ccco1	-1%	17%	6%	-9%	-9%	12%	-2.6%	-9%
Cc1ccc(OCc2ccc(-c3nc(C#N)c(N4CCC(C)CC4)o3)o2)cc1	·	?	·	-27%[46.1 µM]	-9%	6%[46.1 µM]	-23%	·
CCN(CC)c1nc2c(S(=O)(=O)c3ccc(C)cc3)nnn2c2ccsc12	·	-15%	·	8%[46.1 µM]	-2%	·	-11%	·
O=C(N/N=C/c1ccoc1)c1ccccc1	-3%	·	12%	·	24%	·	·	-6%
O=C(CSc1nc2ccc([N+](=O)[O-])cc2s1)c1ccc2ccccc2c1	-1%	-29%	0%&1%	·	-12%	·	4.5%	20%
NS(=O)(=O)c1ccc(CCNC(=O)CCNS(=O)(=O)c2ccccc2C(F)(F)F)cc1	-8%	·	·	16%	3%	21%	·	-23%
C[N+]12CCC(CC1)C(OC(=O)C(O)(c1ccccc1)c1ccccc1)C2 (centres undefined)	2%	2%&5%	-4%	13%	-17%&-2%	14%&14%&14%&14%&14%&14%	1.2%&0.2%	1%[18.4 µM]

Later entries.
SMILES	SARS PLP yeast	Cruzain noTriton	NS1 inh	Lassa entry inh	2A StopGo	MARV entry inh	Cruzain Triton	RE007 growth inh
Cc1cc(C)c(Cn2c(C(O)c3ccccc3)nc3ccccc32)c(C)c1 (centres undefined)	·	?	·	?	-26%	?	1.4%	·
O=C(c1ccccc1)c1cc2ccc(O)cc2oc1=O	-19%	0%	-2%	6%	55%[activator]	5%	-9.0%	?
CCCCC1(C)OC(=O)C(=Cc2c[nH]c3ccccc23)C(=O)O1 (centres undefined)	-1%	·	·	-10%	-4%	-7%[46.1 µM]	·	4%
CCOC(=O)c1ccc(N2C(=O)CC(N3CCC(C#N)(c4ccccc4)CC3)C2=O)cc1 (centres undefined)	-19%	?	-53%	5%	?	5%	1.9%	22µM*
COC(=O)c1cccc(S(=O)(=O)N(Cc2ccco2)Cc2cc3cc(OC)c(OC)cc3[nH]c2=O)c1	-10%	?	9%	-23%	0%	-12%	-11%	-7%
CC(C)(C)OC(=O)N1CCC(c2c(C(=O)N3CCN(C(=O)c4ccco4)CC3)cnn2-c2cccc(Cl)c2)CC1	2%	?	-18%	27%[46.1 µM]	-11%&-13%	·	-2.9%	-2%
CCOc1ccccc1-n1ccn(CC(=O)Nc2ccc(Br)cc2F)c(=O)c1=O	3%	·	·	-2%	7%	-4%	·	8%
CCn1c(SC)nnc1-c1sc2cc(Cl)ccc2c1Cl	-17%	-11%	-49%	20%	-17%	-23%	-6.0%	-6%
Cc1ccc(S(=O)(=O)O/N=C2\CCCc3ccccc32)cc1	-21%	4%	-1%	-5%	-4%	-9%	2.7%	5%
COc1ccccc1CNC(=O)CCn1c(=O)c2ccccc2n(CC(=O)Nc2ccc(Br)cc2F)c1=O	·	-8%	·	3%[46.1 µM]	-28%	16%[46.1 µM]	0.7%	·
CCc1noc(C)c1C(=O)N1CCCC(N2CCN(c3ccccc3F)CC2)C1 (centres undefined)	2%	·	-5%	-11%[46.1 µM]	-6%	1%[46.1 µM]	·	16%
COc1cccc(OCC(O)CN2CCN(c3ncccn3)CC2)c1 (centres undefined)	1%	-9%	13%	3%	4%	-23%	-1.3%	-19%

(listing goes on)
SMILES	SARS PLP yeast	Cruzain noTriton	NS1 inh	Lassa entry inh	2A StopGo	MARV entry inh	Cruzain Triton	RE007 growth inh
CC1CCCC(C)N1C(=O)Cn1c(=O)sc2ccccc21 (centres undefined)	1%	-6%	0%	·	-25%	·	4.1%	6%
COc1cc(C(=O)N(C)Cc2cccc(OC)c2OC)ccc1OCC(=O)Nc1cccc(C(F)(F)F)c1	-7%	·	·	?	?	?	·	2%
Cc1ccc(Cn2nc(C)c(NC(=O)c3cc(C)no3)c2C)cc1	-2%	-1%	-1%	·	-9%	·	4.6%	4%
C=C(C)CN1C(=O)C(O)(CC(=O)c2ccc3c(c2)OCCO3)c2ccccc21 (centres undefined)	13%	2%	?	1%	?	-2%	4.2%	4%
Cc1cc(C)c2sc(NNC(=O)c3ccc(S(=O)(=O)N4CCc5ccccc5C4)cc3)nc2c1	7.9µM*	6.3µM*	11µM*	12µM*	?	?	4.1%	22%
Cc1cc(C)cc(N2C(N)=NC(N)=NC2c2cccc(Cl)c2)c1 (centres undefined)	15%	·	2%	?	-7%	0%[46.1 µM]	·	-15%
CCCc1nn2c(=O)cc(COC(=O)c3cccc(NC(=O)CCc4ccccc4)c3)nc2s1	·	-2%	·	?	-9%	·	-1.4%	·
CCOc1cccc(C(=O)NNC(=O)C2C3C=CC(C3)C2C(=O)O)c1 (centres undefined)	-1%	·	-1%	17%[46.1 µM]	-17%	2%[46.1 µM]	·	-12%
COc1cc(C2Nc3cc(Cl)c(S(N)(=O)=O)cc3S(=O)(=O)N2)cc(OC)c1OC (centres undefined)	-17%	5%	-9%	11%	2%	18%	1.9%	5%
O=C(c1ccc([N+](=O)[O-])cc1)N1CCN(c2ncc(Br)cn2)CC1	4%	·	1%	·	-25%	·	·	4%
O=C(CNS(=O)(=O)c1ccc([N+](=O)[O-])cc1)N/N=C\c1ccc(O)cc1	0%	·	2%	·	-15%	·	·	15%
CN1CCCN(C(=O)/C=C/c2ccc(F)cc2)CC1	-12%	3%	-3%	?	0%	?	-1.9%	-5%

The listing continues.
SMILES	SARS PLP yeast	Cruzain noTriton	NS1 inh	Lassa entry inh	2A StopGo	MARV entry inh	Cruzain Triton	RE007 growth inh
CC(=O)NCC(=O)N(C)C(C(=O)Nc1ccc2c(c1)OCCO2)c1ccccc1 (centres undefined)	-29%	16%	-3%	-13%	-2%	12%	-4.4%	30%
CN1C2=C(C(=O)CC(C)(C)C2)C(c2cccs2)C2=C1CC(C)(C)CC2=O	·	·	·	12%[46.1 µM]	10%	-11%[46.1 µM]	·	-4%
O=C(C1CCN(c2ncnc3c2nc2n3CCCCC2)CC1)N1CCCCC1	6%	·	3%	·	0%	·	·	3%
Cc1nc(C)c(C(=O)N2CCCC(C(=O)c3ccc4ccccc4c3)C2)s1 (centres undefined)	-1%	·	-13%	·	0%	·	·	-9%
CCc1c(C)nn(C(=O)/C(C#N)=C\N(C)C)c1C	1%	·	5%	-3%[46.1 µM]	13%	29%[46.1 µM]	·	4%
O=C(Cc1ccccc1)Nc1cccc(C(=O)O)c1O	1%	·	·	-5%	17%	0%[46.1 µM]	·	18%
CCOCCc1nnc(NC(=O)c2cc(OC)c(OC)c(OC)c2)s1	-2%	-8%	-7%	14%	4%	3%	-2.7%	-8%
CN(C)C1(CNC(=O)Nc2ccccc2)CCCCC1	-1%	·	8%	4%	-15%	8%[46.1 µM]	·	9%
COc1ccc(C2=C(C)C(N3CCC(C(=O)NCc4ccco4)CC3)=NS2(=O)=O)cc1	·	4%	·	?	-10%	·	-4.9%	·
COc1ccc(NC(=O)C2C3CCC(O3)C2C(=O)O)c(OC)c1 (centres undefined)	-1%	·	-6%	-23%[46.1 µM]	-17%	?	·	-13%
Cc1cc(NS(=O)(=O)c2ccc(Cl)cc2)nn1CC(=O)NCc1ccco1	1%	2%	6%	3%	13%	-2%	4.7%	0%
O=C(Cn1cccc1C(=O)c1ccccc1)NCc1cccnc1	3%	1%	4%	23%	-6%	-8%	1.5%	0%

Other structures:
SMILES	SARS PLP yeast	Cruzain noTriton	NS1 inh	Lassa entry inh	2A StopGo	MARV entry inh	Cruzain Triton	RE007 growth inh
Cc1c(NC(=O)Cc2ccccc2)cccc1C(=O)NN1C(=O)c2ccccc2C1=O	13%	-9%	9%	?	-25%	17%	0.0%	·
O=C(Nc1ccc(N2CCOCC2)c(S(=O)(=O)Nc2ccccc2Cl)c1)c1ccc(F)cc1	13%	·	·	?	24%	?	·	-3%
Cc1ccc(CNCc2ccccc2)s1	·	0%	·	9%[46.1 µM]	0%	-8%[46.1 µM]	1.8%	·
COC(=O)c1ccc(-c2ccc(C(=O)N3CCCN(C)CC3)cc2)cc1	-5%	2%	-7%	·	·	·	2.8%	·
CC(=O)Nc1ccc(SCC(=O)N(C)C2CCS(=O)(=O)C2)cc1 (centres undefined)	-2%	·	5%	-3%[46.1 µM]	-16%	6%[46.1 µM]	·	5%
Clc1ccc(C2CSc3c4ncnc-4ncn32)cc1 (centres undefined)	1%	·	-2%	19%[46.1 µM]	-14%	-9%[46.1 µM]	·	25%
Cc1cccc(-n2ncc3c(N4CCC5(CC4)OCCO5)ncnc32)c1	-1%	·	4%	·	37%[activator]	·	·	6%
CSCCC(NC(=O)c1cccc([N+](=O)[O-])c1)C(=O)O (centres undefined)	12%	2%	10%	10%	-21%	13%	0.2%	2%
NC(=O)CSc1nnc(COc2ccccc2)n1Cc1ccco1	2%	·	-1%	·	-1%	·	·	-8%
CCN1CCN(c2cc(SC(C)C)nc(-c3ccc(OC)cc3)n2)CC1	-5%	5%	-9%	?	-14%	-28%	3.0%	7%
O=Cc1ccc2c(c1)CCN2Cc1ccccc1	-2%	·	-39%	·	-11%	·	·	?

Rows are unselected (roughly 4.7% active in at least one column).
